Ecoli rRNA inh: selective bacterial rRNA inhibition in E. coli. E. coli WT GFP vs humanized-ribosome RFP mutants, fluorescence, 24 h; hits give low values; DMSO median 0, no signal -100. GFP signal change (wild-type ribosome), % (test concentration not listed). actives 1.6% (n = 350,000). AID 720706;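 active means significant combined selectivity score with lowered wild-type GFP, culture density cut under 30%, mutant RFP and density less affected; inactive means any of these conditions unmet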; further: one replicate is shown; some compounds called inactive have numbers as strong as hits
ALR inh: inhibitors of human sulfhydryl oxidase ALR; purified ALR, DTT oxidation, H2O2 HRP-luminol luminescence; inhibition, % (test concentration not listed); actives 3.8% (n = 290,000); AID 485317;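 active means mean and each replicate at 75% or more; inconclusive means only one of the two met; inactive means neither met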;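 further: stock transfer was 7.5 nL into about 7.5 µL; 0% = neutral wells and 100% = wells with inactivated enzyme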
Target sequence (P55789 whole entry, looked up): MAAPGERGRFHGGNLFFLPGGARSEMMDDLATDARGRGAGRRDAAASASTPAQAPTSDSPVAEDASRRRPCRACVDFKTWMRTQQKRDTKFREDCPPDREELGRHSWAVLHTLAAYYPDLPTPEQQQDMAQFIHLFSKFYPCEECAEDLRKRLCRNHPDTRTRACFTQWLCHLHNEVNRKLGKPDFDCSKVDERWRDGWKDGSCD
Ecoli growth: blocks Escherichia coli growth. OD600, 23 h; hits give low values. OD600 absorbance (test concentration not listed). actives 0.21% (n = 330,000). AID 1053175;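 active means OD600 absorbance below the run mean of sample wells minus 3.6 SD, in any replicate, cut at about 0.56 in these data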;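 further: stock transfer was 300 nL into about 60 µL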
MLL AF4-AF9 inh: inhibitors of human MLL-AF4/AF9 interaction; AlphaScreen, biotin-AF4 peptide binding to FLAG-AF9; AID 651704; actives 0.47% (n = 350,000); P42568; inhibition, % at 10 µM;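 active means every replicate reaching a set inhibition limit, whatever the replicate mean, cut at about 25% in these data; inconclusive means mean inhibition reaches that limit but some replicates miss it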;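 further: 0% = plate neutral control median and 100% = total signal loss; the record names both 10 and 1 µM as test concentration; the first replicate is given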
HNF4A DNA FP: change in binding of human HNF4 alpha to DNA. P41235. HNF4a-FITC DNA binding, fluorescence polarization, 1 h. activity change, % at 10 µM. actives 0.3% (n = 360,000). AID 1224865; in the data active means activity change above about 30%, passing the limit was not always enough;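 further: controls were the assay level and a saturating level of protein; the project sought stronger binding though the title names inhibitors; some compounds called inactive have numbers as strong as hits; positive values seem to mean higher polarization but the record does not say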
Target sequence (P41235 whole entry, looked up): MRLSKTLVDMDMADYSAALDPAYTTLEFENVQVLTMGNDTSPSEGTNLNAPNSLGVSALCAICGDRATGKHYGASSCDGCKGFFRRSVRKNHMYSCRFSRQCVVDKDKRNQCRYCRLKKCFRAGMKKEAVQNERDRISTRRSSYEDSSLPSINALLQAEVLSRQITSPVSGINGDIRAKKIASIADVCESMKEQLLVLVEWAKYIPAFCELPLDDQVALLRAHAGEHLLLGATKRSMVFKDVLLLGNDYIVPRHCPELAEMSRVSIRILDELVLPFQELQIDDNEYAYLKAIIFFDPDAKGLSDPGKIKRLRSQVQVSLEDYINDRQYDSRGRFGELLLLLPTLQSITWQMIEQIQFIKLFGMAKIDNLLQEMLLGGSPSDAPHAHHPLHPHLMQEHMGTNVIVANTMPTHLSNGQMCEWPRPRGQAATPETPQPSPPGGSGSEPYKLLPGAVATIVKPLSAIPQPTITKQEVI
Vif TR-FRET: HIV-1 Vif–A3G interaction blockers – biochemical, TR-FRET, GST-Vif 1-94, biotin-A3G peptide, dose response retest, primary screen (AID 1117319). TR-FRET GST-Vif / biotin-A3G peptide binding; higher % means a stronger effect; test concentration not given here; strong numbers were not always called active. inhibition, %; hits with a dose series show IC50 in µM. actives 0.57% (n = 260,000);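 active means above the screen mean plus three standard deviations and confirmed in dose response; inconclusive means results disagree or hit not tested in dose response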;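 further: Vif residues 1-94 fused to GST binding biotinylated APOBEC3G peptide 110-148; 0% = full assay without inhibitor and 100% = GST in place of GST-Vif; retest series ran down from 100 µM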
FGF22 binding: FGF22 (human) thermal shift binding | actives 1.5% (n = 340,000) | recombinant FGF22 thermal shift, SYPRO orange fluorescence; percent of sucrose octasulfate shift, DMSO zero | Q9HCT0 | calls only at 9.99 µM | AID 651658;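 active means melting point raised past a set limit in the mean and every replicate; inconclusive means no clear call; three in four hits are not shown here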
Target sequence (Q9HCT0 whole entry, looked up): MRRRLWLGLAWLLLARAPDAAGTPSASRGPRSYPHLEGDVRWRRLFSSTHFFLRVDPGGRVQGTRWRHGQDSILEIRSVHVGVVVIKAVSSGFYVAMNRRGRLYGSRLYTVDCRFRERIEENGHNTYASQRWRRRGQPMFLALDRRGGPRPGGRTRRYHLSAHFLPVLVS
Ecoli rRNA inh OD600: recorded beside Ecoli rRNA inh, whose call it bears; OD600 change, %; measured here: OD600 growth;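 optical density of the mix in the first replicate; 0 = DMSO median and -100 = no signal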
Ecoli rRNA inh RFP: further read-out of Ecoli rRNA inh, marked with its call; RFP signal change, %; measured here: RFP humanized mutant strains;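 first replicate; 0 = DMSO median and -100 = no signal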
An asterisk follows results filed as active; i = inactive; ? = inconclusive; . = not tested or not shown; & = joins results of further samples. An excerpt (hit frequency here may not be typical).

Ecoli rRNA inh	Ecoli rRNA inh OD600	Ecoli rRNA inh RFP	ALR inh	Ecoli growth	MLL AF4-AF9 inh	HNF4A DNA FP	Vif TR-FRET	FGF22 binding	molecule
12.4	8.9	2.8	-3.6	0.641	-8.6	1.9	.	i	CCOc1ccc(NC(=O)C(=O)NCCN2CCN(S(=O)(=O)c3ccc(C)cc3)CC2)cc1
-0.6	-0.1	-1.5	.	.	3.4	.	.	i	CNC[C@H]1Oc2c(NC(=O)c3ccncc3)cccc2C(=O)N([C@@H](C)CO)C[C@H]1C
0.5	-7.1	0.5	.	0.654	-2.7	3.1	5.8%	i	O=C(COC(=O)CSc1ccc(Cl)cc1)NCCc1ccccc1
-8.9	-15.5	4.3	1.6	0.7	-1.4	-1.8	.	i	COc1ccc(C(=O)NC2CCCc3ccccc32)c(OC)c1OC (stereo not drawn)
3.5	6.5	1.9	.	.	-4.1	.	.	i	C[C@@H]1CN([C@@H](C)CO)C(=O)c2cc(NS(=O)(=O)c3cccs3)ccc2O[C@@H]1CN(C)CC1CCCCC1
.	.	.	-1.1	.	.	0.3	2.4%	.	Cc1c(/C=N/NC(=O)C(C)(C)Oc2ccc(Cl)cc2)cnn1C
4.2	4.8	0.5	.	0.694	-0.6	-0.1	-0.7%	i	O=C1NCCCCC1NS(=O)(=O)c1cccc2ccccc12 (stereo not drawn)
19.4	8.8	4.5	26.5	0.692	-1.9	2.8	9.8%	i	Cc1cc2cc(CCNC(=O)C(=O)c3c[nH]c4ccccc34)c(=O)[nH]c2cc1C
.	.	.	1.8	0.766	.	-0.1	?	.	O=C(COC(=O)c1cn(-c2ccccc2)nc1-c1ccccc1)c1cccc([N+](=O)[O-])c1
0.3	-7.5	1.6	-0.2	0.638	3.9	-5.9	.	i	CN1CCN(Cc2c(C(=O)N3CCc4ccccc4C3)nc3ccc(Cl)cn23)CC1
.	.	.	-9.1	0.783	.	-1.7	?	.	COc1ccc(N=C(C)C2=C(O)COC2=O)cc1
6.5	15.9	1.1	-6.9	0.602	0.2	-4.7	10.5%	i	O=C(CNC(=O)c1ccco1)Nc1ccc(OC(F)F)cc1

Additional records follow.
Ecoli rRNA inh	Ecoli rRNA inh OD600	Ecoli rRNA inh RFP	ALR inh	Ecoli growth	MLL AF4-AF9 inh	HNF4A DNA FP	Vif TR-FRET	FGF22 binding	molecule
.	.	.	-4.2	0.718	.	3.8	-0.6%	.	Cc1c(NC(=O)/C=C/c2cccs2)c(=O)n(-c2ccccc2)n1C
9.8	2.7	1.0	43.0	0.667	-31.5	-0.5	1.2%	i	CC1CCCC2(C1)NC(=S)N(c1ccccc1)N2 (stereo not drawn)
.	.	.	-1.0	0.73	.	3.7	4.9%	.	O=C(CSc1nc(-c2ccco2)cc(C(F)(F)F)n1)Nc1ccccc1C(F)(F)F
.	.	.	-8.7	0.654	.	0.1	4.6%	.	CCn1c(=O)cc(SCC(=O)N2CCN(C(=O)c3ccco3)CC2)c2ccccc21
.	.	.	-5.0	0.74	.	-9.2	11.2%	.	Cc1ccc(Cn2ccc(NC(=O)c3cc(-c4ccc(Cl)cc4)on3)n2)cc1
.	.	.	-1.6	0.758	.	0.0	-3.6%	.	CC(=O)N1CCN(c2ccc(NC(=O)c3ccc(OCc4ccccc4)cc3)cc2)CC1
-55.4	-75.6	-26.0	4.3	0.66	4.2	16.3	23.9%	i	CC(C)(C)c1ccc(O)c(N=Cc2cc(Br)ccc2O)c1
-22.0	-26.2	-3.4	5.1	0.638	-9.1	0.2	8.3%	i	COc1ccc(Nc2cc(C)nc3ccc(OC)cc23)cc1
.	.	.	0.9	0.819	.	-1.0	-10.7%	.	Cc1ccc(OCC(O)CN2C(=O)NC(C)(C)C2=O)cc1 (stereo not drawn)
.	.	.	7.4	0.607	.	-1.8	-6.3%	.	CC(C)C1O/C(=N/C(=O)Nc2ccc(Cl)c(Cl)c2)NC1=O (stereo not drawn)
.	.	.	4.4	0.705	.	1.5	28.5%	.	CCOc1ccccc1Nc1nc(N)nc(CSc2nccc(C)n2)n1
-7.3	-4.3	1.3	-7.4	.	7.6	7.9	-11.0%	i	OC1(c2ccc(Cl)cc2)CCN(Cc2cn[nH]c2-c2ccc(F)cc2)CC1

Next section:
Ecoli rRNA inh	Ecoli rRNA inh OD600	Ecoli rRNA inh RFP	ALR inh	Ecoli growth	MLL AF4-AF9 inh	HNF4A DNA FP	Vif TR-FRET	FGF22 binding	molecule
-3.5	7.3	-0.1	-4.6	0.77	0.8	-0.6	7.4%	i	Cc1ccc2c(c1)NC(=O)C(CC(=O)NCCCN1CCCCC1C)O2 (stereo not drawn)
-2.4	-5.8	-0.5	-78.9	0.719	-0.6	0.8	.	i	CCN(CC)C(=O)Cn1cc(S(=O)(=O)CC(=O)Nc2ccc(OC)c(OC)c2)c2ccccc21
4.6	16.4	1.3	.	0.662	0.2	2.4	1.1%	i	Cc1ccc(C(=O)NN=Cc2ccc3c(c2)OCO3)cc1
13.5	10.1	1.4	-4.1	0.706	0.2	-0.4	-3.8%	i	Cc1ccc(S(=O)(=O)N2CCCC2CNC(=O)C(=O)NCc2ccccn2)cc1 (stereo not drawn)
-19.9	-36.1	-1.8	5.2	0.695	1.1	3.0	.	i	O=C(NCCc1c[nH]c2ccccc12)OCCCCOC(=O)NCCc1c[nH]c2ccccc12
.	.	.	11.3	0.775	.	2.7	-4.8%	.	COC(=O)c1ccc(C(=O)OC)c(NC(=O)COC(=O)C23CC4CC(CC(O)(C4)C2)C3)c1
-4.3	1.7	-0.9	-4.3	0.717	2.2	-5.5	.	i	Cc1ccccc1-n1ccnc1SCC(=O)Nc1cccc(S(=O)(=O)NC2=NCCC2)c1
16.1	5.8	-0.4	.	0.721	-1.0	1.9	-10.4%	i	COc1cc(C2CC(=O)N(c3ccc(C)cc3)C(=O)C2)cc(OC)c1OC
.	.	.	-2.9	0.661	.	-1.6	-4.9%	.	O=C(NCc1ccccn1)c1ccc(N2CCCC2=O)cc1
-4.2	7.7	-1.3	-3.5	0.642	-1.3	3.0	-4.5%	i	O=C(NNc1ncnc2sccc12)c1ccc(Cl)cc1
-15.0	-29.4	-1.7	-1.8	0.684	0.3	-0.2	.	i	COc1ccc(C(=O)N(Cc2ccccc2)c2cccc(C)c2)c(OC)c1OC
.	.	.	-6.8	0.709	2.2	0.4	.	i	S=C(Nc1ccc(Cl)c(Cl)c1)N1CCOCC1

(listing goes on)
Ecoli rRNA inh	Ecoli rRNA inh OD600	Ecoli rRNA inh RFP	ALR inh	Ecoli growth	MLL AF4-AF9 inh	HNF4A DNA FP	Vif TR-FRET	FGF22 binding	molecule
-5.8	31.3	7.6	.	0.724	0.4	-1.5	-3.2%	i	CCOc1ccccc1N=CC1=C(O)CC(c2ccccc2)CC1=O (stereo not drawn)
.	.	.	2.0	0.688	.	-1.2	4.5%	.	O=S(=O)(Cc1ccccc1)/C1=C(\N2CCOCC2)CCCCCC1
3.0	4.6	-7.2	-1.9	0.636	0.6	2.1	.	i	CNC(=O)CC(CC(=O)c1ccccc1)c1ccccc1 (stereo not drawn)
.	.	.	69.0	0.726	.	-0.9	-8.2%	.	COc1ccc(/C=C(/C#N)C(=O)NC2CCCCC2)cc1Br
21.1	15.6	1.7	.	.	-0.1	-1.4	.	i	CCOC(=O)[C@]12CCCC=C1N(Cc1ccc(Cl)cc1Cl)C(=O)[C@H](CC(=O)NCCc1ccccc1OC)C2
3.6	13.3	1.4	.	.	-0.9	.	.	i	COc1ccccc1CNC(=O)C[C@@H]1CC[C@@H](NC(=O)CC2CC2)[C@@H](CO)O1
0.5	6.2	0.0	.	.	0.1	.	.	i	O=C(NC1CCC1)[C@@H]1[C@@H](CO)[C@@H]2Cn3c(ccc(-c4ccc(F)cc4)c3=O)[C@H]1N2
-2.7	-6.7	-2.9	.	.	-5.0	.	.	i	Cc1ccc(S(=O)(=O)Nc2ccc3c(c2)C(=O)N([C@@H](C)CO)C[C@@H](C)[C@H](CN(C)C(=O)Nc2ccccc2)OCCCC[C@@H](C)O3)cc1
.	.	.	-39.2	0.74	.	1.3	-2.9%	.	COc1ccc(N(C(=O)Cc2cccs2)C(C(=O)NC2CCCCC2)c2cccn2C)cc1OC (stereo not drawn)
15.7	15.8	2.2	-11.0	0.727	1.3	-0.3	-1.7%	i	CSCCC(NC(=O)c1ccccc1Cl)C(=O)NC1CCN(Cc2ccccc2)CC1 (stereo not drawn)
.	.	.	.	0.703	.	1.2	-4.3%&0.2%	.	COc1ccc(S(=O)(=O)NCC2CCC(C(=O)N3CCC4(CC3)OCCO4)CC2)cc1 (stereo not drawn)
-12.1	-22.1	-1.8	-6.6	0.621	1.4	1.4	.	i	COc1ccc(OC)c(NC(=O)CN(C)CCOc2ccc(Br)cc2)c1

(further entries)
Ecoli rRNA inh	Ecoli rRNA inh OD600	Ecoli rRNA inh RFP	ALR inh	Ecoli growth	MLL AF4-AF9 inh	HNF4A DNA FP	Vif TR-FRET	FGF22 binding	molecule
4.6	2.1	-0.5	2.1	0.695	6.4	-1.9	.	i	COc1ccc(C2=NCCn3nc4ccccc4c32)cc1
.	.	.	38.2	0.654	.	-0.8	-7.5%	.	COc1ccc(-c2n[nH]c(C(F)(F)F)c2-c2cc3ccccc3o2)c(O)c1
2.7	4.0	-2.0	3.0	0.628	0.9	-0.3	.	i	O=C(c1nc2ccccn2c1CN1CCC(Cc2ccccc2)CC1)N1CCCC1
.	.	.	-17.2	0.718	.	-0.8	16.5%	.	CCc1cc(Br)ccc1N1C(=O)C2CC=CCC2C1=O (stereo not drawn)
-0.7	-20.3	0.8	.	0.702	-9.0	1.7	.	i	CC(=O)c1ccc(OCCCC(=O)OCC(=O)N2CCN(S(=O)(=O)c3ccc(C)cc3C)CC2)cc1
4.1	-1.7	-0.6	.	0.693	-0.6	-0.2	.	i	NC(=O)c1nsc(C(=O)N(Cc2ccco2)C(C(=O)NCC2CCCO2)c2ccc(F)cc2)c1N (stereo not drawn)
6.9	10.7	4.5	.	0.704	-4.9	2.8	10.1%	i	O=C(O)C(Cc1ccc(OS(=O)(=O)Cc2ccccc2)cc1)NS(=O)(=O)Cc1ccccc1 (stereo not drawn)
2.3	4.9	-6.6	-8.1	0.699	2.5	-2.0	.	i	C#CCC(NC(=O)c1ccc(C(F)(F)F)cc1)C(=O)NCCC (stereo not drawn)

Retrieved one by one from above:
Ecoli rRNA inh	Ecoli rRNA inh OD600	Ecoli rRNA inh RFP	ALR inh	Ecoli growth	MLL AF4-AF9 inh	HNF4A DNA FP	Vif TR-FRET	FGF22 binding	molecule
2.3	4.9	-6.6	-8.1	0.699	2.5	-2.0	.	i	C#CCC(NC(=O)c1ccc(C(F)(F)F)cc1)C(=O)NCCC (stereo not drawn)
.	.	.	-9.1	0.783	.	-1.7	?	.	COc1ccc(N=C(C)C2=C(O)COC2=O)cc1
.	.	.	2.0	0.688	.	-1.2	4.5%	.	O=S(=O)(Cc1ccccc1)/C1=C(\N2CCOCC2)CCCCCC1

Compound activity deposited in PubChem by several laboratories.
